Source: PubChem (several laboratories)
PKD1 kinase inh – PKD1 (human) kinase inhibition. Q15139. PKD1 kinase fluorescence polarization assay. inhibition, %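 (about 10 µM by stock and volumes)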. 200,000 tested, 0.056% active. AID 797;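 active = inhibition of 50% or more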;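 note: controls were vehicle for no effect and a reference inhibitor for full effect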
HSV replic up – increases HSV replication in cells. HSV replication augmentation in cells, fold increase. maximum fold increase. 220,000 tested, 0.005% active. AID 1956;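 active = peak rise of 1.5-fold or more in the series; inconclusive = self-fluorescent or not available for retest; tested in PC3 cells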;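 note: first round at 10 µM; read as green reporter fluorescence; hits show the peak of a series up to 25 µM; 1 = signal of infected wells without compound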
INS promoter inh – TRM-6 insulin promoter activity inhibition; TRM-6 cells (human fetal islet line), insulin promoter-eGFP reporter, imaging; reporter expression induced with tamoxifen; 130,000 tested, 0.9% active; AID 1273; inhibition, % at 2 µM;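 active = inhibition above the mean plus 3 SD, with well images judged a real hit on visual review, cut at about 60% in these data, passing the limit was not always enough; inconclusive = inhibition over the cutoff but images rejected on review; inactive = inhibition not above the cutoff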
RGS16-Gao HTS – RGS16-Galphao interaction regulator (human). bead-based flow cytometry RGS16-Galphao binding, fluorescence; actives lie on both sides. binding response (% of control), % at 10 µM. 220,000 tested, 0.38% active. AID 1441;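 active = below 25% or above 175%, edge rows of some plates excepted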;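 note: Galphao activated by GDP with aluminum fluoride before binding; 100% = wells without compound and 0% = beads without RGS; some results beyond the cut were filed as inactive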
Target sequence (O15492 whole entry, looked up): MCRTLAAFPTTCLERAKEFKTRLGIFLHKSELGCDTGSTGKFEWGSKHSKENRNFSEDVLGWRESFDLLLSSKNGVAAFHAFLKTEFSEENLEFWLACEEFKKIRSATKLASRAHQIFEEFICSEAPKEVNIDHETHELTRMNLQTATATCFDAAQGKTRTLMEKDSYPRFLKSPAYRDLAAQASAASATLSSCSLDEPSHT
Target sequence (P09471 whole entry, looked up): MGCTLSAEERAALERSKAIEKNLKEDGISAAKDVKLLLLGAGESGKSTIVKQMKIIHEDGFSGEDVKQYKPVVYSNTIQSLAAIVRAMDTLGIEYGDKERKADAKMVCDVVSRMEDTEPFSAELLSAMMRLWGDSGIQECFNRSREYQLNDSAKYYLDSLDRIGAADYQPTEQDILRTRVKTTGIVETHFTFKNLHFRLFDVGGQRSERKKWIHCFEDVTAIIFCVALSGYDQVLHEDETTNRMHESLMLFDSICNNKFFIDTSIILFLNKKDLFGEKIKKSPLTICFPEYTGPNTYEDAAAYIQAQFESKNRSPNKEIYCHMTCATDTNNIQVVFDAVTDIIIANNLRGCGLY
GALR2 ag – GALR2 (human) receptor agonism; activation, %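 (tested at 5 µM)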; 140,000 tested, 0.48% active; AID 803; GALR2-expressing cells, agonist activation read-out; O43603;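 active = above mean plus 3 SD of all compounds, about 5% in these data, not always enough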;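 note: 0% = vehicle buffer wells and 100% = reference agonist at full effect; tested in CHO reporter cells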
Target sequence (O43603 whole entry, looked up): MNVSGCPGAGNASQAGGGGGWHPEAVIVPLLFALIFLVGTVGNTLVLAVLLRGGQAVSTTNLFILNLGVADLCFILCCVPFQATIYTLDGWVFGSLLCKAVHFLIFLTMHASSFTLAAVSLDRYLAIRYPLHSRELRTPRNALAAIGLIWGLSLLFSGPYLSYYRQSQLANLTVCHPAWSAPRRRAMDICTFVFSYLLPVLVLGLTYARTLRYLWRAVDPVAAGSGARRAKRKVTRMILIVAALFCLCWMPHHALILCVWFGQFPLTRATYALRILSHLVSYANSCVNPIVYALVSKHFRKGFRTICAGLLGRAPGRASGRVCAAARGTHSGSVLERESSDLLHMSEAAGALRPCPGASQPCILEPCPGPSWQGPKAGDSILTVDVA
INS promoter inh cell count – also measured in INS promoter inh; calls as there; normalized cell count, %; measured here: cell count, toxicity; reference of the scale not given here;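 cells exposed to compound for 48 h; stained nuclei by imaging scaled within each plate; lower means fewer cells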
HSV replic up primary fold – recorded beside HSV replic up, whose call it bears; fold increase; compound at 10 µM; measured here: primary screen fold increase 10 uM; tested in PC3 cells;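 GFP signal in the first replicate; 1 = infected wells without compound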
Numbers without * were called inactive; i = inactive; ? = inconclusive; . = no result given. Rows were taken by chance (roughly 1.3% active in at least one column).

SMILES	PKD1 kinase inh	HSV replic up	HSV replic up primary fold	INS promoter inh	INS promoter inh cell count	RGS16-Gao HTS	GALR2 ag
Cc1ccc(C)c(OCC(=O)NCCN(C)C)c1	-1	i	0.97	-41	93	104	-2.3
COc1cc(NC(=O)C2CC(c3cccc(OC)c3OC)=NO2)cc(OC)c1OC (stereo not given)	2	i	0.74	-61	143	112	0.3
Cn1c(N)c(C(=O)COC(=O)c2cncc(Br)c2)c(=O)n(C)c1=O	4	i	0.97	10	64	90	.
Cc1ccc(S(=O)(=O)N2CCN(CC(=O)N/N=C/c3ccco3)CC2)cc1	-5	i	0.89	17	139	101	-0.7
COCCCN(C(=S)Nc1c(C)cc(C)cc1C)C(C)c1ccccn1 (stereo not given)	-2	i	1.1	28	138	99	.
CCOC(=O)c1nc(NCc2cccnc2)c2ccccc2n1	-2	i	0.77	-3	100	93	0.0
C=CCn1c(CCNC(=O)c2cccs2)nnc1SCC(=O)Nc1cccc(C(C)=O)c1	-4	i	0.99	-219	61	110	-1.9
O=C(CSc1n[nH]c(=O)[nH]c1=O)c1ccccc1	-4	i	0.88	-17	92	57	-2.4
COc1ccc(C(=O)Nc2ccc(OC)c(OC)c2)cc1	-2	i	1	-74	94	101	-3.2
CCOC(=O)C1C(c2ccc(O)c(O)c2)NC(=S)NC1(O)C(F)(F)F (stereo not given)	-1	i	1	-100	125	68	-0.1
C/C(Cl)=C\Cn1c(N2CCCCCC2)nc2c1c(=O)n(C)c(=O)n2C	-6	i	0.82	-6	124	100	-1.3
CCOc1ccc(CN2CCN(Cc3[nH]c4ccc(OC)cc4c3C)CC2CCO)cc1 (stereo not given)	-2	i	0.87	-22	168	111	.
CCOc1cc(CNc2ccc(N(C)C)cc2)cc(Br)c1OCC(=O)NC(C)(C)C	-6	i	1	-40	79	89	-1.9
CN(CC(=O)Nc1sccc1C#N)Cc1ccccc1	4	i	1	-67	99	93	-1.5
CC1(C)CC(=O)C2=C(C1)Nc1[nH]c(=S)[nH]c(=O)c1C2c1ccccc1 (stereo not given)	-7	i	1	-28	122	89	-0.8
CCOc1cc(-c2c(C)c(CC)nc(N)c2C#N)ccc1O	0	i	0.89	.	.	88	-0.2
COC(=O)[C@H]1[C@H]2C[C@@H]3c4[nH]c5cc(OC)ccc5c4CCN3C[C@H]2C[C@@H](OC(=O)c2ccc(N)cc2)[C@@H]1OC	.	i	1.3	.	.	102	.
CCCCn1c(SCC(=O)NCCc2ccc(OC)c(OC)c2)nc2c1c(=O)n(C)c(=O)n2C	2	i	0.95	-56	99	101	-1.5
CCO/C=C1\N=C(c2ccc(F)cc2)OC1=O	-8	?	.	.	.	94	-0.5
O=C1CCCC/C1=C/Nc1ccc2c(c1)OCO2	-6	i	1	50	165	87	-1.4
CCOc1ccc(NC(=S)N(CC)Cc2ccccc2)cc1	-2	i	1.4	.	.	100	.
O=C(O)C1CC(O)CN1C(=O)c1ccco1 (stereo not given)	2	i	1	25	109	89	-0.7
Cc1ccc(NNC2CC(=O)N(c3cccc(Cl)c3)C2=O)cc1 (stereo not given)	2	i	1.3	.	.	101	.
Cn1c(=O)nc2n(Cc3ccccc3)c3cccc(Cl)c3cc-2c1=O	1	i	0.81	.	.	105	0.6
CCCCNC(=S)N/N=C1\C(=O)c2cccc3cccc1c23	-3	i	0.85	2	99	111	-2.1
Cc1c(NC2(C#N)CCCCC2)c(=O)n(-c2ccccc2)n1C	-4	i	0.99	-7	198	101	.
CN(C)c1nc(NC(C)(C)C)nc(SCC(=O)Nc2ccccc2)n1	-5	i	0.96	80*	85*	72	.
Clc1ccc(-c2cc(COc3ccccc3)on2)cc1	2	i	0.92	.	.	102	.
COCCOC(=O)c1c(NC(=O)CN2CCCc3ccccc32)sc(C(N)=O)c1C	-4	i	1.1	.	.	101	-0.4
Cc1cccc(N2CCN(C(=S)Nc3ccc4nc5n(c(=O)c4c3)CCCCC5)CC2)c1C	6	i	0.99	-11	90	102	.

Copied from the list:
HSV replic up primary fold result of COC(=O)[C@H]1[C@H]2C[C@@H]3c4[nH]c5cc(OC)ccc5c4CCN3C[C@H]2C[C@@H](OC(=O)c2ccc(N)cc2)[C@@H]1OC reads 1.3
RGS16-Gao HTS result of Cc1c(NC2(C#N)CCCCC2)c(=O)n(-c2ccccc2)n1C reads 101

(further entries)
SMILES	PKD1 kinase inh	HSV replic up	HSV replic up primary fold	INS promoter inh	INS promoter inh cell count	RGS16-Gao HTS	GALR2 ag
O=C1CC(c2ccccc2)n2nc(N3C(=O)CCC3=O)nc2N1 (stereo not given)	-2	i	1	.	.	99	-3.8
Cc1ccc(SCC(=O)Nc2ccc(S(=O)(=O)Nc3nccs3)cc2)cc1	-8	i	1	.	.	100	0.4
CCN1CC(CN(C)Cc2nc(COc3ccccc3)no2)CC1=O (stereo not given)	11	i	0.87	.	.	102	.
NC(=O)c1cccc(S(=O)(=O)N2CCCCC2)c1	4	i	0.92	-25	142	102	0.2
COC(=O)COc1cccc2c(=O)n(CC(=O)NCc3ccc(F)cc3)ccc12	-6	i	0.51	.	.	99	.
COc1ccccc1NC(=O)c1cccnc1	-4	i	1	-39	46	102	-1.2
CN(C)S(=O)(=O)Oc1ccsc1C(=O)Nc1ccc(C(F)(F)F)cc1	0	i	0.99	.	.	86	.
Cc1nn(C(C)C(=O)N2CCc3ccccc3C2)c(=O)c2cc3occc3n12 (stereo not given)	0	i	0.93	.	.	82	0.0
Cc1ccc(C(C(=O)NC2CCCCC2)N(Cc2ccccc2)C(=O)Cc2c[nH]c3ccccc23)o1 (stereo not given)	-9	i	0.91	-63	111	102	-1.4
CC(C)N(CCc1ccncc1)C(=O)Nc1ccc(Cl)c(Cl)c1	-7	i	0.94	.	.	100	-1.7
Cc1nc(N2CCN(Cc3ccc(Cl)cc3)CC2)c2oc3ccccc3c2n1	.	i	1.1	.	.	98	.
Cc1cc2c(N=O)c(NO)ccc2[nH]1	10	i	0.85	-9	67	84	-3.0
Cc1ccccc1C(=O)Nc1ccc(Br)c(C)n1	4	i	0.95	-28	224	104	-0.7
CCCc1nnc(SCC(=O)N2CCCC(C)C2)n1CCOC (stereo not given)	2	i	1.1	31	93	98	.
COCC(C)NC(=O)CCS(=O)(=O)c1nc(-c2ccc(OC)cc2)cc(C(F)(F)F)n1 (stereo not given)	-10	i	0.81	16	116	98	0.5
CCCCCOC(=O)C1C(c2ccccc2)C(C(=O)O)C1c1ccccc1 (stereo not given)	-10	i	1	-114	91	103	3.8
CCOC(=O)/C(C#N)=C/Nc1ccccc1NS(=O)(=O)c1cccc(C(C)=O)c1	1	i	1.1	33	103	119	.
O=C(NCc1ccc2c(c1)OCO2)c1cccc(S(=O)(=O)N2CCCCC2)c1	0	i	0.87	-19	127	99	-0.9
Cc1ccc(N=C(NO)c2nonc2N)cc1	3	i	1.1	-6	114	97	-1.3
Cc1ccccc1S(=O)(=O)NCc1ccc(N2CCN(C)CC2)cc1	.	i	1.1	.	.	122	.
COc1cc(C(=O)N2CCN(c3cccc(C)c3C)CC2)cc(OC)c1OC	0	i	0.61	.	.	102	-4.4
Cn1cccc1/C=C1\SC(=S)N(Nc2ccccc2)C1=O	.	?	.	.	.	100	.
CC(C)c1ccc(NC(=O)COC(=O)/C=C/c2cccc([N+](=O)[O-])c2)cc1	-6	i	0.97	9	128	104	-1.1
CN(C(=O)c1ccc2c(c1)OCO2)C1(C(=O)NC2CCCCC2)CCCCC1	4	i	1	50	98	105	-2.3
Cc1ccc(CC(=O)Nc2ccc([N+](=O)[O-])cc2C)cc1	1	i	1	5	93	96	.
COc1ccc(/C=N/N=C2/NC(=O)CC(C(=O)O)S2)cc1 (stereo not given)	-4	i	1.1	7	84	96	-0.1
CC1(C)C(=O)OC(c2c3ccccc3cc3ccccc23)C(C)(C)C1=O (stereo not given)	.	i	0.95	.	.	88	.
Cc1cccc(CN2C[C@]34C=C[C@@H](C[C@@H]3S2(=O)=O)O4)c1	.	i	0.96	.	.	73	.
CCN1C(=O)CC(C(=O)NCCc2ccc(S(N)(=O)=O)cc2)SC1=Nc1ccc(OC)cc1 (stereo not given)	1	i	0.78	-9	69	100	.
CC(=O)Nc1ccc(OCC(O)CN2CCN(c3ccccc3Cl)CC2)cc1 (stereo not given)	-10	i	0.88	6	153	92	-2.0

3 of the compounds above, with bars between the fields.
SMILES | PKD1 kinase inh | HSV replic up | HSV replic up primary fold | INS promoter inh | INS promoter inh cell count | RGS16-Gao HTS | GALR2 ag
Cn1c(=O)nc2n(Cc3ccccc3)c3cccc(Cl)c3cc-2c1=O | 1 | i | 0.81 | . | . | 105 | 0.6
CCCCNC(=S)N/N=C1\C(=O)c2cccc3cccc1c23 | -3 | i | 0.85 | 2 | 99 | 111 | -2.1
Cc1c(NC2(C#N)CCCCC2)c(=O)n(-c2ccccc2)n1C | -4 | i | 0.99 | -7 | 198 | 101 | .

(more compounds)
SMILES	PKD1 kinase inh	HSV replic up	HSV replic up primary fold	INS promoter inh	INS promoter inh cell count	RGS16-Gao HTS	GALR2 ag
OCCCc1cn(-c2ccccc2)c2ccccc12	0	i	0.94	0	102	105	.
COc1ccc(Cc2nc(-c3ccc(Cl)cc3)no2)cc1	7	i	0.88	-17	156	103	-1.5
COc1ccccc1CN1C[C@@H]2C[C@@H](c3ccc(C)c(C)c3)N3CCC[C@@]23C1=O	-4	i	1.1	-492	58	107	.
CCOC(=O)CCNC(=O)Nc1ccc2nc(C)n(Cc3ccc(Cl)cc3)c(=O)c2c1	-6	i	0.81	.	.	96	-0.6
CCOP(=O)(OCC)c1nc(-c2ccc(Cl)cc2Cl)oc1N1CCOCC1	-3	i	0.91	-21	72	105	.
COc1cc(C(=O)O)cc(Br)c1OC1CCCC1	5	i	1.1	-103	112	103	-2.5
O=C(Nc1ccn(Cc2ccccc2F)n1)c1ccc(COc2ccc(Br)cc2)cc1	-8	i	0.95	.	.	103	-2.8
O=C1c2nc3cc(-c4ccco4)[nH]n3c(=O)c2CN1C1CCCCC1	.	i	1	.	.	100	.
CC(C)OCCCNC(=S)NNC(=O)C(c1ccccc1)c1ccccc1	1	i	0.96	.	.	101	.
CCCCC(=O)NC1(C(F)(F)F)C(=O)Nc2c1c(=O)n(C)c(=O)n2C (stereo not given)	0	i	0.98	18	205	107	-0.6
O=C(O)CC/C(=N/NC(=O)CNC(=O)C(c1ccccc1)c1ccccc1)c1ccccc1	.	i	1.1	.	.	110	.
COc1cccc2cc(C(C)N(CCCN3CCOCC3)C(=S)Nc3cccc(C)c3)oc12 (stereo not given)	-4	i	0.95	50	86	103	.
Clc1ccc(NC2(c3nnnn3C3CCCCC3)CCCCC2)cc1	-1	i	1.1	.	.	101	-4.0
CCCCOc1ccccc1C1C(C(N)=O)=C(C)Nc2nnnn21 (stereo not given)	-10	i	0.79	-493	61	105	-1.4
CCOc1cc(/C=C2/C(=O)ON=C2C)ccc1OCc1ccccc1F	-3	i	0.9	31	60	74	-1.9
Cc1cccc(NC(=O)c2ccc([N+](=O)[O-])o2)c1	.	i	0.66	.	.	106	.
COc1ccc(C)cc1NC(=O)CCS(=O)(=O)c1cccc2nonc12	1	i	1.1	-27	41	105	-4.4
Fc1ccc(CSc2ncnc3c2oc2ccccc23)cc1	-10	i	0.8	24	109	102	-0.7
CCCCNC(=O)N(C)c1nncnc1C(=O)NC	-1	i	1	.	.	98	-2.2
Cc1nnc2n(-c3ccccc3)c(=O)c3c4c(sc3n12)CCCC4	-8	i	1.1	0	94	103	0.3
O=C(NCCc1ccccc1)c1ccco1	2	i	0.92	26	38	101	-2.0
CCCCCC(=O)NNC(=O)c1c(O)c2ccccc2n(CC)c1=O	11	i	0.99	-7	119	98	.
O=C(COC(=O)Cc1ccc(S(=O)(=O)N2CCCCC2)s1)Nc1ccc2c(c1)OCO2	-2	i	1	44	147	89	-1.1
CCc1ccc(CNCc2cccnc2)cc1	-6	i	1.1	-35	149	103	-3.7
CCc1ccc2[nH]c(=O)c(CN(Cc3ccco3)C(=S)NCC3CCCO3)cc2c1 (stereo not given)	-5	i	1	-27	109	100	.
CCOc1ccccc1N(C(=O)Cn1nnnc1-c1ccc(C)o1)C(CC)C(=O)NC(C)(C)C (stereo not given)	-18	i	0.86	12	75	100	0.0
O=C1Nc2ncccc2OC1CCO (stereo not given)	-3	i	1	29	94	100	-1.7
Cc1c(C(=O)OCCOc2ccc(Br)cc2)sc(=S)n1C	7	i	0.92	.	.	95	.

Only INS promoter inh cell count and PKD1 kinase inh, for 2 of the compounds above:
canonical_smiles,INS promoter inh cell count,PKD1 kinase inh
CCN1CC(CN(C)Cc2nc(COc3ccccc3)no2)CC1=O (stereo not given),.,11
O=C(NCc1ccc2c(c1)OCO2)c1cccc(S(=O)(=O)N2CCCCC2)c1,127,0
